NOMO-1 viab = STK33 inhibitor candidate reducing NOMO-1 cell viability; inhibition, % (concentration not given with the values); AID 2330; actives 7.5% (n = 37,000); NOMO-1 AML viability, CellTiter-Glo luminescence, 72 h;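 active = most replicates above 80%; inconclusive = exactly half above 80%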;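 note: wells of about 30 µL received 25 nL stock; 0% = median of vehicle wells and 100% = reference inhibitor level; the first replicate is given; inactives centre near 10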
Active calls of the source: *; ? = inconclusive. This is a subset (hit frequency here may not be typical).

| structure | NOMO-1 viab |
| --- | --- |
| C[C@@H]1CN([C@@H](C)CO)C(=O)c2cc(NC(=O)Nc3cccc4ccccc34)ccc2O[C@@H]1CN(C)S(=O)(=O)c1ccc(Cl)cc1 | 38 |
| COc1ccccc1-n1nnnc1SCC(=O)Nc1ccccc1SC | 10 |
| CCn1c(=N)n(CCCOc2ccc(Br)cc2)c2ccccc21 | 36 |
| c1cnc2cc(Oc3ccc4nccnc4c3)ccc2n1 | 27 |
| Cn1c(SCC(=O)Nc2c(Cl)cccc2Cl)nnc1-c1ccc(NC(=O)c2ccc(F)cc2)cc1 | 15 |
| C[C@@H]1CN([C@H](C)CO)C(=O)c2cc(NS(=O)(=O)c3cccs3)ccc2O[C@H]1CN(C)S(=O)(=O)c1cn(C)cn1 | 5 |
| COCCCNC(=O)c1cc(-c2ccccc2)nc2c(C)cc(C)cc12 | 41 |
| C[C@@H]1CN([C@H](C)CO)C(=O)Cc2cc(NC(=O)CCCN(C)C)ccc2O[C@H]1CN(C)S(=O)(=O)c1cccs1 | -7 |
| O=C(Nc1ccc(Cl)cc1Cl)NC(Cc1ccc(O)cc1)C(=O)O (stereo unspecified) | -29 |
| Cc1cc(C)cc(CC(C)CC(=O)Nc2ccccc2I)c1 (stereo unspecified) | 17 |
| Cc1cc(C(=O)Nc2cccc3c2O[C@@H](CN(C)C(=O)NC(C)C)[C@H](C)CN([C@H](C)CO)C3=O)n(C)n1 | -15 |
| CC(C)NC(=O)Nc1ccc2c(c1)CC(=O)N([C@@H](C)CO)C[C@H](C)[C@@H](CN(C)S(=O)(=O)c1ccc(Cl)cc1)O2 | 20 |
| Cc1noc(C)c1NC(=O)N(C)C[C@@H]1OCCCC[C@@H](C)Oc2ccc(NS(=O)(=O)c3c(C)noc3C)cc2C(=O)N([C@H](C)CO)C[C@@H]1C | -16 |
| COc1ccc(NC(=O)Nc2ccc3c(c2)C(=O)N([C@@H](C)CO)C[C@H](C)[C@@H](CN(C)S(=O)(=O)c2ccc(C)cc2)O3)cc1 | -6 |
| COc1ccc(NC(=O)CN2CCN(C(=O)c3ccco3)CC2)cc1 | -9 |

In the list so far, two have an aryl thioether with sulfur outside any ring.
| structure | NOMO-1 viab |
| --- | --- |
| COc1ccccc1-n1nnnc1SCC(=O)Nc1ccccc1SC | 10 |
| Cn1c(SCC(=O)Nc2c(Cl)cccc2Cl)nnc1-c1ccc(NC(=O)c2ccc(F)cc2)cc1 | 15 |

Continuation:
| structure | NOMO-1 viab |
| --- | --- |
| O=C(Nc1ccc(NC(=O)c2ccccc2O)cc1)c1ccc(Cl)cc1 | -17 |
| C[C@H]1CN([C@@H](C)CO)C(=O)c2cc(NS(C)(=O)=O)ccc2O[C@@H]1CN(C)C | 11 |
| COc1ccc(OC)c(NC(=O)Cn2cc(C(C)=O)c3ccccc32)c1 | 46 |
| C=C1C(=O)O[C@H]2[C@H]1C[C@H](OC(=O)/C(C)=C\C)/C(C)=C\CC[C@@]1(C)O[C@@H]21 | 121* |
| Cc1noc(C)c1NC(=O)N(C)C[C@@H]1Oc2ccc(NS(C)(=O)=O)cc2C(=O)N([C@@H](C)CO)C[C@H]1C | 10 |
| COc1ccccc1-c1cc(-c2ccccc2)nc(SCC(=O)c2cc3ccccc3oc2=O)c1C#N | 68 |
| C[C@H]1CN([C@@H](C)CO)C(=O)c2cccc(NC(=O)c3ccc(-c4nccs4)cc3)c2O[C@@H]1CN(C)C(=O)Nc1cccc2ccccc12 | 19 |
| C[C@H](CO)N1C[C@H](C)[C@H](CN(C)C(=O)Nc2ccc(F)cc2)Oc2ccc(NS(=O)(=O)c3cn(C)cn3)cc2CC1=O | -10 |
| Cc1noc(C)c1S(=O)(=O)Nc1ccc2c(c1)C(=O)N([C@@H](C)CO)C[C@H](C)[C@H](CN(C)C(=O)NC(C)C)O2 | 3 |
| C[C@H]1CN([C@@H](C)CO)C(=O)c2cccc(NC(=O)Nc3ccc(C(F)(F)F)cc3)c2O[C@H]1CN(C)C(=O)Nc1ccc(F)cc1 | ? |
| COc1cc2c(cc1NC(=O)CCOc1ccccc1C)oc1ccccc12 | 7 |
| C[C@@H]1CCCCO[C@@H](CN(C)Cc2ccc(Cl)c(Cl)c2)[C@@H](C)CN([C@H](C)CO)C(=O)c2cc(NC(=O)Nc3ccccc3)ccc2O1 | 103* |
| CNC[C@@H]1Oc2ccc(NS(=O)(=O)c3ccc(OC)cc3)cc2CC(=O)N([C@H](C)CO)C[C@H]1C | 3 |
| COc1ccc(NC(=O)Nc2ccc3c(c2)C(=O)N([C@H](C)CO)C[C@H](C)[C@@H](CN(C)C(=O)NC2CCCCC2)O3)cc1 | 5 |
| O=C(CC1(O)C(=O)N(CCOc2ccccc2)c2ccccc21)c1ccc2c(c1)CCCC2 (stereo unspecified) | 49 |

The last 5 entries of the part above are carried over, then new ones follow.
| structure | NOMO-1 viab |
| --- | --- |
| COc1cc2c(cc1NC(=O)CCOc1ccccc1C)oc1ccccc12 | 7 |
| C[C@@H]1CCCCO[C@@H](CN(C)Cc2ccc(Cl)c(Cl)c2)[C@@H](C)CN([C@H](C)CO)C(=O)c2cc(NC(=O)Nc3ccccc3)ccc2O1 | 103* |
| CNC[C@@H]1Oc2ccc(NS(=O)(=O)c3ccc(OC)cc3)cc2CC(=O)N([C@H](C)CO)C[C@H]1C | 3 |
| COc1ccc(NC(=O)Nc2ccc3c(c2)C(=O)N([C@H](C)CO)C[C@H](C)[C@@H](CN(C)C(=O)NC2CCCCC2)O3)cc1 | 5 |
| O=C(CC1(O)C(=O)N(CCOc2ccccc2)c2ccccc21)c1ccc2c(c1)CCCC2 (stereo unspecified) | 49 |
| COc1ccc(C(=O)CSc2nnc(-c3cc4ccccc4o3)n2C)cc1 | -6 |
| C[C@@H]1CN([C@H](C)CO)C(=O)Cc2cc(NC(=O)c3ccncc3)ccc2O[C@@H]1CN(C)Cc1ccncc1 | -20 |
| COc1ccc(OC)c(N(CC(=O)Nc2ccc(F)c(F)c2)S(C)(=O)=O)c1 | 11 |
| CCN(CC(=O)Nc1ccc(I)cc1)S(=O)(=O)c1ccc(Cl)cc1 | 32 |
| O=c1c(-c2ccccc2)c(O)c2cccc3c4ccccc4n1c23 | 10 |
| C[C@@H]1CN([C@@H](C)CO)C(=O)Cc2cc(NS(=O)(=O)c3cn(C)cn3)ccc2O[C@@H]1CN(C)Cc1ccc(Oc2ccccc2)cc1 | 35 |
| Cc1cc(NS(=O)(=O)c2ccc(NC(=O)NC3CCCCC3)cc2)no1 | 33 |
| Cc1ccc(NC(=O)CSc2nnc(-c3ccc(C(C)(C)C)cc3)o2)c(C)c1 | -23 |
| C[C@H](CO)N1C[C@H](C)[C@H](CN(C)C(=O)Nc2ccc(F)cc2)Oc2ccc(NC(=O)Nc3ccc4c(c3)OCO4)cc2C1=O | -5 |
| COc1ccc(OC)c(NC(=O)CN(c2cccc(Br)c2)S(C)(=O)=O)c1 | -4 |
| COc1ccc(C(=O)N(Cc2nc(-c3ccc(Cl)cc3)no2)C(C)C)cc1[N+](=O)[O-] | 27 |
| C[C@H]1CN([C@@H](C)CO)C(=O)c2cc(NC(=O)CCC(F)(F)F)ccc2O[C@@H]1CN(C)C | -1 |
| C[C@@H]1CN([C@@H](C)CO)C(=O)c2cc(NS(=O)(=O)c3ccc(F)cc3)ccc2O[C@@H]1CN(C)Cc1ccc(Oc2ccccc2)cc1 | 112* |
| Cc1noc(C)c1S(=O)(=O)Nc1ccc2c(c1)C(=O)N([C@H](C)CO)C[C@@H](C)[C@@H](CN(C)Cc1ccc3c(c1)OCO3)O2 | 13 |
| C[C@@H]1CCCCO[C@@H](CN(C)Cc2ccc3c(c2)OCO3)[C@@H](C)CN([C@H](C)CO)C(=O)c2cc(NS(C)(=O)=O)ccc2O1 | 20 |
| O=C(CN1C(=O)CNC1=O)Nc1ccc(Cl)cc1 | 6 |
| COc1ccc(CN(C)C[C@H]2Oc3ccc(NS(=O)(=O)c4c(C)noc4C)cc3CC(=O)N([C@H](C)CO)C[C@H]2C)cc1 | 6 |
| Cc1ccc(O)c(NC(=O)CCCOc2ccc(Cl)cc2Cl)c1 | 61 |
| O=C(O)CC(Cc1ccccc1)C(=O)Nc1ccc(Cl)c(Cl)c1 (stereo unspecified) | -15 |
| Cc1ccc(S(=O)(=O)Nc2ccc3c(c2)CC(=O)N([C@H](C)CO)C[C@@H](C)[C@@H](CN(C)C(=O)Nc2ccc(F)cc2)O3)cc1 | 7 |
| COc1ccc(NC(=O)Nc2cccc3c2O[C@H](CN(C)Cc2ccc4c(c2)OCO4)[C@@H](C)CN([C@H](C)CO)C3=O)cc1 | 67 |
| CNC[C@H]1Oc2ccc(NS(=O)(=O)c3ccc(C)cc3)cc2C(=O)N([C@H](C)CO)C[C@@H]1C | -2 |
| C[C@H](CO)N1C[C@H](C)[C@@H](CN(C)S(=O)(=O)c2ccc(F)cc2)Oc2ccc(NS(=O)(=O)c3ccc(Cl)cc3)cc2C1=O | -11 |
| C[C@H]1CN([C@@H](C)CO)C(=O)c2cccc(NS(=O)(=O)c3ccc(Cl)cc3)c2O[C@H]1CN(C)Cc1ccc(-c2ccccc2)cc1 | 84* |
| C[C@@H]1CCCCO[C@@H](CN(C)S(=O)(=O)c2ccc(Cl)cc2)[C@@H](C)CN([C@H](C)CO)C(=O)c2cc(NS(C)(=O)=O)ccc2O1 | 33 |
| CSc1cccc(NC(=O)CNS(=O)(=O)c2ccc(F)cc2)c1 | -6 |
| C[C@H](CO)N1C[C@H](C)[C@@H](CN(C)C(=O)Nc2ccc3c(c2)OCO3)Oc2c(NS(=O)(=O)c3cn(C)cn3)cccc2C1=O | 3 |
| C/C=C(\CO)C(=O)O[C@H]1[C@H](O)[C@@H](C(=O)OC)O[C@@H]2C[C@H]3OC(n4cnc5c(N)ncnc54)[C@H](OC)[C@H]3O[C@]21O (stereo partly specified) | 12 |
| C[C@H]1CN([C@@H](C)CO)C(=O)c2cc(N(C)C)ccc2O[C@@H]1CN(C)S(=O)(=O)c1ccc(F)cc1 | 20 |
| C[C@@H]1CN([C@@H](C)CO)C(=O)c2cc(NC(=O)Cn3cnnn3)ccc2O[C@H]1CN(C)C(=O)Nc1ccc(F)cc1 | 13 |
| O=C(CSCCO)Nc1ccc(F)cc1 | 5 |
| C[C@@H]1CN([C@H](C)CO)C(=O)c2cccc(NS(C)(=O)=O)c2O[C@@H]1CN(C)Cc1ccc(Oc2ccccc2)cc1 | -1 |
| C[C@@H]1CN([C@H](C)CO)C(=O)c2cc(NC(=O)c3ccncc3)ccc2O[C@@H]1CN(C)Cc1ccc2c(c1)OCO2 | 19 |
| C[C@H](CO)N1C[C@H](C)[C@H](CN(C)C)Oc2c(NC(=O)Nc3ccc(C(F)(F)F)cc3)cccc2C1=O | 27 |
| COc1ccc(CN(C)C[C@@H]2Oc3c(NS(=O)(=O)c4cn(C)cn4)cccc3C(=O)N([C@@H](C)CO)C[C@H]2C)cc1 | -15 |
| C[C@H]1CN([C@@H](C)CO)C(=O)c2cc(NC(=O)c3ccncc3)ccc2O[C@@H]1CN(C)Cc1ccc(C(F)(F)F)cc1 | -4 |
| Cn1c(SCC(=O)N2CCCCC2)nnc1-c1cccc(NC(=O)c2ccccc2)c1 | 35 |
| COc1ccc(CN(C)C[C@@H]2Oc3ccc(NC(=O)C4CCCCC4)cc3C(=O)N([C@@H](C)CO)C[C@H]2C)cc1 | 17 |
| O=C(CNC(=O)c1ccccc1)Nc1cccc(-c2cnc3ccccc3n2)c1 | 39 |
| CC(=O)Nc1ccc(C(=O)CSc2nnc(-c3ccccc3Cl)o2)cc1 | 30 |
| C[C@@H]1CN([C@H](C)CO)C(=O)c2cc(NS(=O)(=O)c3cccs3)ccc2O[C@@H]1CN(C)Cc1ccc(Cl)c(Cl)c1 | 24 |
| CNC[C@H]1Oc2ccc(NC(=O)Nc3ccccc3)cc2CC(=O)N([C@@H](C)CO)C[C@H]1C | 27 |
| N#Cc1c(Nc2ccccc2)s[nH]c1=O | -17 |
| COc1ccc(NC(=O)CSc2nc3ccc([N+](=O)[O-])cc3s2)cc1Cl | 19 |
| C[C@@H]1CCCCO[C@@H](CN(C)C(=O)Nc2ccc(F)cc2)[C@@H](C)CN([C@H](C)CO)C(=O)c2cc(NC(=O)c3ccccc3)ccc2O1 | 17 |
| Cc1noc(C)c1S(=O)(=O)Nc1ccc2c(c1)C(=O)N([C@H](C)CO)C[C@H](C)[C@@H](CN(C)C)O2 | 6 |
| C[C@@H]1CN([C@H](C)CO)C(=O)Cc2cc(NC(=O)C3CCCCC3)ccc2O[C@H]1CN(C)Cc1ccc(C(F)(F)F)cc1 | 50 |
| CC(C)NC(=O)Nc1ccc2c(c1)C(=O)N([C@H](C)CO)C[C@H](C)[C@@H](CN(C)C(=O)Nc1ccc(F)cc1)OCCCC[C@@H](C)O2 | -3 |
| Cc1ccc(S(=O)(=O)N(C)C[C@@H]2Oc3c(NS(=O)(=O)c4cccs4)cccc3C(=O)N([C@@H](C)CO)C[C@H]2C)cc1 | -6 |
| COc1ccc(S(=O)(=O)N(C)C[C@H]2Oc3c(NS(=O)(=O)c4ccc(F)cc4)cccc3C(=O)N([C@H](C)CO)C[C@@H]2C)cc1 | -5 |
| COc1ccc(S(=O)(=O)Nc2ccc3c(c2)CC(=O)N([C@@H](C)CO)C[C@@H](C)[C@@H](CN(C)C(=O)Nc2ccc(C(F)(F)F)cc2)O3)cc1 | 9 |
| Cc1nc(SCC(=O)N2c3ccccc3CCc3ccccc32)n[nH]1 | 19 |
| CC(=O)c1ccc(NC(=O)CC2Nc3cccc4cccc(c34)NC2=O)cc1 (stereo unspecified) | -3 |
| O=C(CSc1nc2ccccc2o1)OCc1ccccc1 | 20 |
| O=C(NCCN1CCOCC1)c1ccc(Cl)c(S(=O)(=O)N2CCOCC2)c1 | -14 |
| C[C@@H]1CN([C@H](C)CO)C(=O)c2cccc(NS(=O)(=O)c3cn(C)cn3)c2O[C@H]1CN(C)C(=O)Nc1ccc2c(c1)OCO2 | 12 |
| Fc1ccccc1OCCCCSc1ncccn1 | 1 |
| COc1ccc(S(=O)(=O)N(C)CC(=O)Nc2ccccc2SC)cc1Cl | 9 |
| O=C(CSc1nc2c(c(C(F)(F)F)n1)CCCC2)N1c2ccccc2Sc2ccccc21 | 39 |
| CNC[C@H]1Oc2c(NC(=O)c3ccncc3)cccc2C(=O)N([C@H](C)CO)C[C@@H]1C | -11 |
